# High-throughput results as filed in PubChem.
# D2 ag – human D2 receptor agonism in beta-arrestin assay; 360,000 compounds, 0.084% hits; DiscoveRx PathHunter D2 beta-arrestin, luminescence, 90 min; 100% = 57 uM dopamine signal; activation, % (concentration not given with the values); in the data active = activation above about 40%; inconclusive = about 15% to 40%; inactive = below about 15%; also: the text of the record calls up to 30% inactive
# Target sequence (P14416 whole entry, looked up): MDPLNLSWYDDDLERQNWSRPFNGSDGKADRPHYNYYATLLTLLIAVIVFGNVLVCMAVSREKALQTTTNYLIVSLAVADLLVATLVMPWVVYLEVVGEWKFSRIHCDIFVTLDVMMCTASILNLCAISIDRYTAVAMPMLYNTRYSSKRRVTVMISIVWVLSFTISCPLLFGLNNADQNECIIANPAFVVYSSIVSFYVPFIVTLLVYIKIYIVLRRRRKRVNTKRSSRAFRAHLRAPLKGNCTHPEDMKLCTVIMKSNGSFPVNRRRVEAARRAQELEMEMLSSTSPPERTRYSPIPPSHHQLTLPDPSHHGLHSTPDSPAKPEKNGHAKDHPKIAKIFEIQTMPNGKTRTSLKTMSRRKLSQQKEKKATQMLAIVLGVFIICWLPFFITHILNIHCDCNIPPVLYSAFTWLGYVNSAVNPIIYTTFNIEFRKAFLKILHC
#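 DiscoveRx PathHunter D2 beta-arrestin cells (2,100/well) attached overnight, then compound-stimulated 90 min at 37 C in HBSS/10 mM HEPES/0.1% Tween-20 buffer; beta-galactosidase complementation read by luminescence after 1 h at ambient temperature. Dopamine 57 uM final (EC100) as control.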
# Six1-Eya2 inh – blocks human Six1 binding to Eya2; AlphaScreen GST-Six1/His-Eya2 binding, biochemical; active compounds read low; control for the full effect not named in the record; activity change, % (no concentration beside the values); 360,000 compounds, 0.56% hits; in the data active = activity change below about -65%; inconclusive = about -30% to -65%; inactive = above about -30%; also: % is scaled to controls: 0 for no effect and ±100 for the full control effect
#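 AlphaScreen luminescence read after one hour at 37 °C in darkness. Pin-transferred compounds met GST-Six1 and His-Eya2 protein (5X stock 250 nM/500 nM) plus glutathione donor and Ni-chelate acceptor beads (5X, 50 ug/mL).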
# CtBP-E1A inh – CtBP/E1A binding inhibition. AlphaScreen GST-E1A/His-CtBP binding, 1536-well; active compounds read low; control for the full effect not named in the record. activity change, % (concentration not given with the values). 340,000 compounds, 0.49% hits. AID 651724; in the data active means activity change below about -65%; inconclusive means about -30% to -65%; inactive means above about -30%; also: % is scaled to controls: 0 for no effect and ±100 for the full control effect
#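 In 5 uL wells, 23 nL compound meets equimolar GST-E1A and His-CtBP (5X stock 125 nM each) for 2 h, 37 °C. Beads (5X, 50 ug/mL) then 1 h, 37 °C, dark.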
# TRPML1 blocker – human mucolipin-1 channel inhibition; 390,000 compounds, 0.02% hits; activity change, negative = inhibition, % (test concentration not listed); Q9GZU1; TRPML1-inducible cells, Ca2+ dye fluorescence, FDSS; active compounds read low; inhibition of EC80 agonist-evoked calcium signal; in the data active means activity change below about -50%; inconclusive means about -30% to -50%; inactive means above about -30%;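 also: stimulus is agonist 54-4 at its EC80 concentration; % is scaled to controls: 0 for no effect and ±100 for the full control effect; compound concentration not given in the record; the text of the record puts the active cut at -80%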
# Target sequence (Q9GZU1 whole entry, looked up): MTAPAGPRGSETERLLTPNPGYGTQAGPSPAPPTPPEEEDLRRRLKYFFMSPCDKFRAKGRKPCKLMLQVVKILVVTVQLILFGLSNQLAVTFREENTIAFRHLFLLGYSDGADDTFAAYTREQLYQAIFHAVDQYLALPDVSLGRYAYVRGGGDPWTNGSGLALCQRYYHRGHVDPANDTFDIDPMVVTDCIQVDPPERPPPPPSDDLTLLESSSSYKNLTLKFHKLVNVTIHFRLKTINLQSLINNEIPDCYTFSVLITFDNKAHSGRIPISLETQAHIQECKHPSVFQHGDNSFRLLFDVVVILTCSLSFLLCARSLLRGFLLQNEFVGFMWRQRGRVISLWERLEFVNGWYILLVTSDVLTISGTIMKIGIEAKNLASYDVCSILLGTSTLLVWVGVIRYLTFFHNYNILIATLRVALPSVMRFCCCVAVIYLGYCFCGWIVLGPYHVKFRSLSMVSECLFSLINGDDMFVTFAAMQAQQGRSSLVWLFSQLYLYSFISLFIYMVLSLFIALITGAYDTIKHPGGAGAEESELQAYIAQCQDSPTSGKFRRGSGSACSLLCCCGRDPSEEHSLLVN
#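 Tet-induced TRPML1-DL cells loaded with Ca8 no-wash calcium dye were read kinetically on FDSS. Compound addition was followed by EC80 agonist 54-4 (4 uM final); inhibition was read over 110 s.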
# PINK1 modulator – modulators of PINK1 expression. AID 624263. Potency, µM (doses to about 76.6 µM), for the others: at the top dose activation (PINK1 increase), most hits filed as activators. 410,000 compounds, 0.2% hits. PINK1 immunofluorescence, high-content cytometry, 24 h; active = well fitted activation curve with a large enough effect; inconclusive = small, poorly fitted or top-dose-only effect; inactive = flat fitted curve, though single readings scatter; cell line not stated here;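 also: potency is read from the fitted curve at half-maximal effect; % of control where 0% means no effect; nearly all actives have a fitted effect of over 65% in size; a mitochondrial uncoupler was the plate control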
#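 Measures PINK1 amount and localization on or inside mitochondria by immunofluorescence. Stable cells get compounds at 5 concentrations for 24 hours before fixation and staining; CCCP controls included.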
# TRPML1 ag – activates the human TRPML1 channel. TRPML1-expressing cells, Ca2+ dye fluorescence, FDSS; host cell line not named in the record; reference of the full effect not given here. 410,000 compounds, 0.12% hits. Q9GZU1. AID 624414. activation, % (test concentration not listed); in the data active = activation above about 50%; inconclusive = about 30% to 50%; inactive = below about 30%; also: 0% is about no effect; the text of the record puts the active cut at 80%
#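 Agonist activity was taken from a 110 s kinetic Ca2+ dye read on the FDSS after pinning compounds onto TRPML1-DL cells. The cells were seeded at 1,500/well with Tet inducer, incubated about 16 h, then dye-loaded at room temperature.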
# Numbers without * were called inactive; ? = inconclusive; . = no result given; & = joins results of further samples; [ ] = another dose, or the depositor's remark.
SMILES,D2 ag,Six1-Eya2 inh,CtBP-E1A inh,TRPML1 blocker,PINK1 modulator,TRPML1 ag
CCN(CC)S(=O)(=O)c1ccc(C)c(NC(=O)Cc2ccc(S(=O)(=O)N3CCOCC3)s2)c1,3.2,-21,21,-9,0.8%,-0.1
Cn1c(=O)c2c(nc(N3CCOCC3)n2Cc2cccc(Br)c2)n(C)c1=O,.,.,.,12,1.4%,-0.4
Cc1nc(CC(=O)NNS(=O)(=O)c2ccc(F)c(Cl)c2)cs1,-1.5,1,5,-13,2.0%,0.3
O=C1CCCN1c1ccc(S(=O)(=O)Oc2ccc(Cl)cc2)cc1[N+](=O)[O-],6.7,-2,-12,-1,-1.9%,1.4
CCOc1nc(-c2ccccc2)ccc1-c1noc(COC)n1,0.6,32,23,6,7.2%,2.4
NS(=O)(=O)c1ccc(NC(=O)Nc2cccc(Cl)c2)cc1,6.2,9,-1,-11,-3.0%,2.0
CCOC(=O)CCNC(=O)N1CCN(S(=O)(=O)c2ccc3c(ccn3C)c2)CC1,.,.,.,5,0.3%,2.1
CCOC(=O)C1(Cc2ccc(Cl)cc2)CCN(C(=O)CCc2cnccn2)CC1,0.4,-2,-6,35,-1.7%,0.2
O=C(CSCc1ccc(Cl)cc1)N/N=C/c1ccco1,-1.0,-10,8,-13,0.3%,0.2
COc1ccc(OCC(=O)Nc2ccccc2C(=O)NC2CC2)cc1,-1.1,0,0,-12,4.3%,0.4
C=CCn1c(COc2cccc(C)c2)nnc1SC(C)C(=O)NC1CC1 (stereo unspecified),5.2,0,0,20,0.2%,1.8
O=C(CSc1nc(-c2ccccc2)nc2c1Cc1ccccc1O2)N1CCCCC1,.,.,.,-6,3.1%,-1.2
Nc1nc2cc3c(cc2cc1C(=O)NCc1ccc(F)cc1)OCO3,.,-10,2,.,9.9%,-0.2
COc1ccc(/C=N/NC(=O)c2ccncc2)c(OC)c1,-2.8,1,.,-10,1.7%,3.9
FC(F)(F)c1cc(-c2cccs2)nc(-n2cc(Br)cn2)n1,-2.3,-1,2,38,0.0%,-0.7
O=C(CSCc1c(F)cccc1Cl)NNC(=S)NC1CCCCC1,-7.5,3,0,1,-1.9%,1.7
CCOCCc1nn2c(=O)cc(COC(=O)c3ccccc3NC(=O)c3ccc(C)cc3)nc2s1,.,.,.,37,3.0%,1.2
O=C(/C=C/c1ccccc1)NCc1cccnc1,-0.6,12,4,29,-2.5%,2.0
COc1ccc(NC(=S)NCCC(c2ccccc2)c2ccccc2)c(OC)c1,0.5,-25,-21,10,-1.0%,1.1
Cc1ccc(NC(=O)COC(=O)C2C3CC4OC(=O)C2C4C3)cc1 (stereo unspecified),-3.2,-1,3,29,-2.3%,-0.1
Nc1ccc2oc(-c3cc(Br)ccc3Cl)nc2c1,3.9,16,13,-4,-1.6%[38.3 µM],1.5
COc1cc(Br)c(C(C)NC(=O)c2ccc(C)cc2)cc1OC (stereo unspecified),1.9,3,6,45,10%[38.3 µM],2.9
COc1ccc(NC(=S)N2CCN(C(=O)C3CCCO3)CC2)cc1 (stereo unspecified),-0.7,6,-8,-8,1.2%,1.1
CC(C)(C)[C@H]1C=C(C(=O)Nc2ccccc2)O[C@@H](OCc2ccc(CO)cc2)C1,-2.2,0,4,-2,1.8%,-0.6
O=C1CSC(=S)N1Nc1ccccc1,-3.3,2,-5,-3,2.0%,6.6
Cc1cc(C)c(S(=O)(=O)c2ccccc2)c(N(C)C)n1,-0.1,11,-1,-2,2.5%,0.1
Cc1ccc(S(=O)(=O)Cn2nnnc2C(c2ccc(F)cc2)N2CCC(C(N)=O)CC2)cc1 (stereo unspecified),-3.5,2,3,1,0.2%,0.1
O=C(NCCC1=CCCCC1)C1CCN(S(=O)(=O)c2cccc3nonc23)CC1,-0.8,29,10,-5,4.4%,0.0
C#CC(CC)(CC)NC(=O)c1nn(-c2ccccc2Cl)c(C)cc1=O,-5.4,4,3,-3,4.4%,0.3
CCN(CC)S(=O)(=O)c1ccc(C(=O)Nc2nnc(-c3ccco3)o2)cc1,-3.9,5,.,-13,-0.9%,0.6
CCc1ccc(NC(=O)c2sc3nc(C)c(Cl)c(C)c3c2N)cc1,.,.,.,-8,-0.7%,1.3
CC1=C(C)[N+](=O)C2CCCCC2N1[O-] (stereo unspecified),-0.1,-7,-10,4,2.2%[38.3 µM],-0.2
Cc1c(C(=O)N(Cc2ccc(N(C)C)cc2)C2CCS(=O)(=O)C2)oc2ccccc12 (stereo unspecified),-5.0,?,?,6&-3,1.0%&-2.1%,-0.4&-0.3
COc1ccc(OC)c(NC(=O)N2CCCC(CNS(=O)(=O)c3cccs3)C2)c1 (stereo unspecified),-5.1,-19,-5,1,-0.5%,-1.6
COc1ccccc1C1CCN(c2ccc([N+](=O)[O-])cn2)CC1,-1.4,-2,-6,74,3.9%,0.5
Cc1cccc(CN2C(=O)N/C(=C/c3ccc(C)s3)C2=O)c1,1.7,0,4,14,7.2%,4.9

# Continued, overlapping the part above by 3 compounds.
SMILES,D2 ag,Six1-Eya2 inh,CtBP-E1A inh,TRPML1 blocker,PINK1 modulator,TRPML1 ag
COc1ccc(OC)c(NC(=O)N2CCCC(CNS(=O)(=O)c3cccs3)C2)c1 (stereo unspecified),-5.1,-19,-5,1,-0.5%,-1.6
COc1ccccc1C1CCN(c2ccc([N+](=O)[O-])cn2)CC1,-1.4,-2,-6,74,3.9%,0.5
Cc1cccc(CN2C(=O)N/C(=C/c3ccc(C)s3)C2=O)c1,1.7,0,4,14,7.2%,4.9
CCOc1ccc(OCC)c(NS(=O)(=O)c2ccc(-c3coc(C)n3)cc2)c1,.,.,.,22,1.2%,0.8
Cc1ccc(/C=C2\SC(=S)N(CCCC(=O)Nc3nccs3)C2=O)cc1,-1.0,3,0,20,17%,-0.4
CCO[C@@H]1OC(C(=O)O)=C[C@H](c2ccc(C(F)(F)F)cc2)[C@H]1CCCO,-0.9,6,5,-4,-1.3%,-0.4
Cc1ccc(Cl)cc1NC(=O)N1CCC(CN2CCCCCC2)CC1,.,.,.,-23,1.8%,1.5
O=C(CN1CCN(c2ccccc2)CC1)N1CCc2ccccc21,0.9,3,-1,5,1.1%,-0.9
Cc1ccc(N=C2C(=O)Nc3ccc(C)c(Br)c32)cc1,-21,2,.,11,0.3%,0.7
Cc1cccnc1NC(=O)CSc1nnc(CNC(=O)c2cccc([N+](=O)[O-])c2)n1C,-2.7,-3,-2,0,-2.5%,-0.1
O=C(CN1CCOc2ccccc21)NCc1ccccc1,-3.0,1,-1,37,0.0%,0.0
O=C(c1cccs1)N1CCN(Cc2ccccn2)CC1,-0.6,5,0,33,0.7%,-0.5
Cc1ccc(OCC(=O)N(C)CC(=O)Nc2ccccc2Cl)c([N+](=O)[O-])n1,0.7,4,-15,-5,0.1%,0.0
CN(C1CCCCC1)S(=O)(=O)c1ccc(NC(=O)c2ccco2)cc1,-0.8,-9,-1,9,7.0%,0.0
CCOc1cccc2cc(C(=O)Oc3ccc(OC)cc3)c(=O)oc12,4.1,-16,1,-20,0.4%,-0.3

# The closing 2 compounds of the section above lead into the next.
SMILES,D2 ag,Six1-Eya2 inh,CtBP-E1A inh,TRPML1 blocker,PINK1 modulator,TRPML1 ag
CN(C1CCCCC1)S(=O)(=O)c1ccc(NC(=O)c2ccco2)cc1,-0.8,-9,-1,9,7.0%,0.0
CCOc1cccc2cc(C(=O)Oc3ccc(OC)cc3)c(=O)oc12,4.1,-16,1,-20,0.4%,-0.3
CCCOc1ccc(CCN2CCC(=O)NC2=O)cc1C,-4.6,0,-1,-7,6.8%,0.5
Cc1ccc(S(=O)(=O)NC(C)c2ccccc2)cc1[N+](=O)[O-] (stereo unspecified),-0.4,-6,1,4,2.4%,-0.5
O=C(CSc1nc(-c2ccccc2)c(-c2ccccc2)o1)Nc1nncs1,-3.5,-1,-8,-2,-0.8%,0.6
COc1ccc(-n2c3c(c(=O)[nH]c2=O)C(NC(C)=O)(C(F)(F)F)C(=O)N3)cc1 (stereo unspecified),-1.3,-20,4,-10&26,-0.8%&1.0%,-0.7&-0.6
Cc1ccc(Cn2c(C3CCCN3c3nc(-c4ccc(F)cc4)cs3)nc3cc(C(=O)NCCCO)ccc32)cc1 (stereo unspecified),-4.8,-19,?,-8,6.7%,-0.1
CN(CC(O)COc1c(F)cc(Br)cc1F)C1CCCCC1 (stereo unspecified),-2.4,16,3,-7,-0.8%,1.4
COCCCN(C(=O)CSCc1ccc(C)cc1)c1c(N)n(Cc2ccccc2)c(=O)[nH]c1=O,1.8,-6,-4,-2,-0.7%,0.4
CC(=O)Nc1ccc(S(=O)(=O)NCCc2ccc3c(c2)OCCO3)cc1,-2.8,1,2,0,0.5%,0.1
COCCOC(=O)c1[nH]c2c(c1C)C(=O)CC(c1ccc(N(C)C)cc1)C2 (stereo unspecified),-1.3,-29,-27,-6,0.4%,-0.4
O=C(N/N=C/c1ccc(O)cc1)c1ccc(NC(=O)c2ccccc2Br)cc1,-1.2,?,?,12,2.7%,1.8
CCC(=O)Nc1sc2c(c1C(=O)Nc1ccc(OC)cc1)CCC(C(C)(C)C)C2 (stereo unspecified),.,.,.,-1,0.8%,1.1
Cc1cccc(-n2c(SCC(N)=O)nc3c(c2=O)C2(CCCCC2)Cc2ccccc2-3)c1,1.1,-4,-6,21,-2.2%,2.7
COCCCNC(=O)CCCn1c(=O)c2cccn2c2cccnc21,.,.,.,8,-0.6%,-0.3
Cn1c(=O)c2c(nc(NCCCCO)n2Cc2ccccc2Cl)n(C)c1=O,.,.,.,62,1.0%,-1.1
O=C(O)CCC(=O)N1CCN(c2nc(-c3ccccc3Cl)c3cc(Br)ccc3n2)CC1,1.6&2.8,5,2,-5,-1.7%,-0.3
CC(C)C[C@H](NC(=O)c1nc[nH]c1C(=O)NC1CCN(C(=O)OC(C)(C)C)CC1)C(=O)OC(C)(C)C,-0.7,-1,0,-10,-1.4%,-1.3
COc1ccc(NC(=O)c2oc3ccccc3c2NC(=O)Cc2coc3ccc(C)cc23)cc1,.,.,.,-1,2.9%,0.3
Cc1ccc(N2CC(C(=O)OCC(=O)Nc3cc(C)on3)CC2=O)c(C)c1 (stereo unspecified),-3.4,9,3,-13,-1.2%,0.1
Cc1ccccc1CNC(=O)CCCn1c(=O)c2cccn2c2ccccc21,.,.,.,-14,-0.1%,3.6
CCOC(=O)C1(C)CCN1C(=O)c1ccc(OC)c(F)c1 (stereo unspecified),-5.0,10,6,.,0.6%,-0.7
COc1ccc(NC(=O)COC(=O)c2c(C)noc2C)cc1Cl,-1.2,8,3,-12,-1.1%,-0.4
CCCCC(=O)c1c(C)cc(C)[nH]c1=O,-2.6,-29,11,-1,-1.0%,0.1
Nc1[nH]c(=O)nc2snnc12,-0.6,-22,0,8,-5.6%,-0.2
CC(C)NC(=O)N(C)C[C@@H]1OCc2cnnn2CCCC(=O)N([C@H](C)CO)C[C@@H]1C,-10,7,2,11,0.8%,-0.3
COc1ccccc1N1CCN(C(=O)c2ccc(Br)o2)CC1,-4.1,0,-12,-1,2.2%,1.5
CCOC(=O)C1=CCN(S(=O)(=O)c2ccc(C)cc2)C1c1cccc(F)c1 (stereo unspecified),-4.5,18,2,8,1.3%,3.1

# An unsorted share of the library, and some 1% of all compounds hit somewhere here.
